Assay outcomes (PubChem)
KCNQ2 pot: potentiators of rat KCNQ2 potassium channel; CHO-K1 KCNQ2, FluxOR thallium flux fluorescence; stronger effect = higher value; B-score at 10 µM; 310,000 compounds, 0.54% hits;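 active means fluorescence ratio B-score at least 3 SD of library B-scores, with initial fluorescence B-score within 3 SD, cut at about 5.3 in these data; same plate scores as AID 2156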;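 further: B-score of peak minus minimum over baseline fluorescence ratio after K+ and Tl+ stimulus; positive B-score means potentiation of KCNQ2 with more thallium influx and brighter signal; only the inactives scoring about 0 or higher are listed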
Target sequence (O88943 whole entry, looked up): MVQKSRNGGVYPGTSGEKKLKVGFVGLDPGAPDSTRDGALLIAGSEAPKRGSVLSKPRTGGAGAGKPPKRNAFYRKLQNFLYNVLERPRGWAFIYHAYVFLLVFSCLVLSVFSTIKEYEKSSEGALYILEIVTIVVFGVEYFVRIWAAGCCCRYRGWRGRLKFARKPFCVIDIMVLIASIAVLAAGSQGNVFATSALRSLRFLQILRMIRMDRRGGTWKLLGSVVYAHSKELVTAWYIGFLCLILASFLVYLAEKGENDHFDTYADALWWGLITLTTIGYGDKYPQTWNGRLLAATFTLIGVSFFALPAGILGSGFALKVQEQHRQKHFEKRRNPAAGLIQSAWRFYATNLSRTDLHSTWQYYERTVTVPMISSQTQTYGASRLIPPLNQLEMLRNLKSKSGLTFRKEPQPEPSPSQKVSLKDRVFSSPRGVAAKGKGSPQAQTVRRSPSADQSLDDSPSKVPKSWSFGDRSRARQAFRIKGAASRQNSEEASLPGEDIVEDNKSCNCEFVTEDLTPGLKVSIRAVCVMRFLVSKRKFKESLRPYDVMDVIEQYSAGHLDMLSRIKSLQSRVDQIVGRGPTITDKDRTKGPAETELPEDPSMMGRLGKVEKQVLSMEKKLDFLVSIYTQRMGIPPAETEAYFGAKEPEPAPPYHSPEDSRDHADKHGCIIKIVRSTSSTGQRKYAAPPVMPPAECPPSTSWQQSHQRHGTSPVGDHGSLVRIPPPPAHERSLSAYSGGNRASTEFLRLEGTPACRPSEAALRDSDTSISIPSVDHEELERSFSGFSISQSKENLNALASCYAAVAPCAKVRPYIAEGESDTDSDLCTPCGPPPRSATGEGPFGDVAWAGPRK
KCNQ2 pot baseline: also measured in KCNQ2 pot; calls as there; B-score; compound at 10 µM; measured here: initial fluorescence intensity artifact check;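 brightness before thallium and not channel activity; 0 = typical well and far values either way flag optical interference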
Starred values were filed as active, the others as inactive. An excerpt (hit frequency here may not be typical).

SMILES	KCNQ2 pot	KCNQ2 pot baseline
COc1ccc(CN2CCN(Cc3ccc(C)cc3)C(CCO)C2)cc1OC (stereo not given)	1.8	-0.11
COc1ccc(CN(C)S(=O)(=O)c2nnc(NC(=O)c3cccc(F)c3)s2)cc1OC	1.5	-1.8
O=C(CCN1C(=O)C2C3C=CC(C3)C2C1=O)Nc1c(F)cccc1F (stereo not given)	0.33	0.2
O=C(CN1CCCC1)N1CCN(c2ccccc2)CC1	0.62	-0.56
C/C(CC(=O)Nc1ccccc1Cl)=N\NC(=O)C(=O)NCCO	0.17	0.81
COc1ccc(C(CCNCc2ccc(N(C)C)cc2)c2ccccc2)cc1 (stereo not given)	0.61	-0.46
O=C(NCCCO)c1cc2c([nH]c3ccccc32)c(-c2ccc(F)cc2)n1	1.8	-0.3
CCc1ccc(C(=O)NC2CCCCC2)s1	1.4	0.03
COc1ccc(NC(=O)CCNC(=O)C2CCN(S(=O)(=O)c3ccc(F)cc3)CC2)cc1OC	0.01	-1.8
Cc1ccc(Cn2nnc3c(=O)[nH]c(C4CCCN(C(=O)c5ccco5)C4)nc32)cc1 (stereo not given)	0.66	-2.4
O=C(CCC(=O)N1CCOc2ccccc21)NC1CCCCCC1	1.3	-0.02
N#CC(c1nc2ccccc2nc1N1CCOCC1)S(=O)(=O)c1ccccc1 (stereo not given)	0.18	-0.18
CN(C)S(=O)(=O)c1ccc(NC(=O)c2cc(F)c(F)cc2Cl)cc1	0.09	-1.5
CCN(CC)S(=O)(=O)c1ccc(-c2nnc(SC)o2)cc1	1.1	-1.3
CC(C)NC(=O)N(O)C1N(Cc2ccc3c(c2)OCO3)C(=S)SC1(C)C (stereo not given)	0.09	-0.93
Cc1ccccc1S(=O)(=O)Cc1ccc(C(=O)N2CC(C)CC(C)C2)o1 (stereo not given)	0.09	1.3
CC1CCCCN1C(=O)CSc1nnc2c(n1)[nH]c1ccccc12 (stereo not given)	0.68	0.33
CS(=O)(=O)N1CCCC(C(=O)NCc2ccco2)C1 (stereo not given)	1.5	-2.9
O=C1c2cccc3cccc(c23)C(=O)N1Cc1ccco1	0.08	0.72
CC(C)CNC(=O)c1cccc(NC(=O)c2ccc(NC(=O)c3ccco3)cc2)c1	1.6	0.03

Structures above containing two or more sulfur atoms (3):
SMILES	KCNQ2 pot	KCNQ2 pot baseline
COc1ccc(CN(C)S(=O)(=O)c2nnc(NC(=O)c3cccc(F)c3)s2)cc1OC	1.5	-1.8
CCN(CC)S(=O)(=O)c1ccc(-c2nnc(SC)o2)cc1	1.1	-1.3
CC(C)NC(=O)N(O)C1N(Cc2ccc3c(c2)OCO3)C(=S)SC1(C)C (stereo not given)	0.09	-0.93

Arranged by molecular weight (falling): part of the list above
SMILES	KCNQ2 pot	KCNQ2 pot baseline
Cc1ccc(Cn2nnc3c(=O)[nH]c(C4CCCN(C(=O)c5ccco5)C4)nc32)cc1 (stereo not given)	0.66	-2.4
COc1ccc(CN2CCN(Cc3ccc(C)cc3)C(CCO)C2)cc1OC (stereo not given)	1.8	-0.11
O=C(CCC(=O)N1CCOc2ccccc21)NC1CCCCCC1	1.3	-0.02
CCc1ccc(C(=O)NC2CCCCC2)s1	1.4	0.03

(next part)
SMILES	KCNQ2 pot	KCNQ2 pot baseline
COc1cccc(-n2nnnc2SCC(=O)c2ccc(NC(C)=O)cc2)c1	1.2	-0.01
CCOc1cc(C(=O)OCC(=O)Nc2cccc(C)c2)ccc1OCC(=O)N1CCOCC1	2.9	-0.23
O=C(NCC1CCCO1)c1cn(-c2ccccc2)nc1-c1ccc(F)cc1 (stereo not given)	1.8	-0.52
Cc1c(CC(=O)O)c(=O)oc2c(C)c(OCc3nn[nH]n3)ccc12	0.07	0.71
CCN(CC)CC(=O)N1c2ccccc2Sc2ccc(Cl)cc21	0.2	0.61
COc1ccc(Br)cc1S(=O)(=O)N(CC(=O)N1CCOCC1)c1ccccc1	2.2	-1.5
O=C(CN1CCN(C(=O)C2CCCO2)CC1)Nc1cc(C(F)(F)F)ccc1Cl (stereo not given)	0.01	1.8
O=C(O)c1cc2[nH]c3c(c2cc1Cl)CCCC3	0.16	0.14
O=C(CSc1n[nH]c(-c2ccccn2)n1)Nc1ccc(Cl)cc1	0.24	0.42
C/C(CC(O)c1ccc2ccccc2n1)=N/O (stereo not given)	1.1	0
CCCCn1c(CNC(=O)CC)nc2ccccc21	1.7	0.02
CN1CCN(C2=Nc3ccccc3Oc3ccc(Cl)cc32)CC1	1.3	1.1
C=CCNC(=O)CSc1nnc(-c2ccccc2Br)n1-c1cccc(C(F)(F)F)c1	1.4	-0.05
Cc1ccccc1CC1(CO)CCCN(Cc2cn[nH]c2-c2ccccc2)C1 (stereo not given)	0.05	-0.03
COc1cc(OC)cc(C(=O)Nc2nc(-c3ccccc3)c(-c3ccccc3)o2)c1	1.1	0.59
CC(=O)Nc1nnc(C2=COCCO2)o1	1	-1.1
COc1cc(S(=O)(=O)NCc2ccccc2)ccc1Br	0.62	-1.4
N#CCc1ccc(NC(=O)Nc2cccc(Cl)c2)cc1	0.58	-0.35
O/N=C1\CC/C(=N\O)c2nn(-c3ccccc3Cl)nc21	0.25	-0.22
COC(=O)c1ccc(Oc2ccc(C(F)(F)F)cn2)cc1	1	-1.3
Cc1c(Cl)cccc1NC(=O)CN(C1CCCCC1)S(C)(=O)=O	0.75	-1
CCOc1ccccc1N(CC(=O)OC)S(C)(=O)=O	1.1	0.14
Cc1cccc(NNC(=O)c2c(F)cccc2Cl)c1	1	0.89
Cc1cc(NS(=O)(=O)c2ccc(NC(=O)c3ccco3)cc2)nc(C)n1	0.03	-0.3
CCOc1cc(C(=O)N(CC)CC(=O)Nc2c(F)cccc2F)ccc1OCC(=O)N1CCCCC1	0.54	2
CC(C)c1ccc(Nc2nnns2)cc1	0.6	-0.76
Cc1ccccc1N(CC(=O)N/N=C/c1cc(Br)c(C)o1)S(C)(=O)=O	0.83	-0.43
Cc1ccc(Nc2ccncc2S(N)(=O)=O)cc1	0.74	-1.6
Cc1ccc2[nH]c(=O)c(CC=C(Cl)Cl)c(C)c2c1	1.2	0.07
Cc1cc(NC(=O)c2ccccc2)cc(NC(=O)c2ccccc2)c1C	0.15	-0.91
NC(=O)CC(NC(=O)c1ccccc1)c1ccc(NC2CCCC2)c([N+](=O)[O-])c1 (stereo not given)	0.11	2.6
Cc1ccc(C2CCN(C(=O)Nc3ccccc3)C2)cc1 (stereo not given)	0.16	-0.37
NC(=O)C1CCN(C(=O)CSc2ncccn2)CC1	0.66	0.25
CCC(C)(C)NC(=O)Cc1ccc(OC)c(OC)c1	0.02	0.82
COCCCNc1nc2ccccc2nc1NS(=O)(=O)c1ccccc1	0.07	-2.3
O=C1c2cccnc2C(=O)N1Cc1ccc(S(=O)(=O)NCc2ccco2)s1	0.07	1.2
CCc1nnc(NC(=O)CC(CN(C)S(=O)(=O)c2ccccc2)c2ccccc2)s1 (stereo not given)	0.03	0.32
COC(=O)CCc1c(C)c(C(=O)c2cc(OC)c(OC)c(OC)c2)c2ccccn12	0.48	-0.6
CCS(=O)(=O)C1=NSC2=NC(=O)/C(=C\c3ccc(OS(=O)(=O)c4ccccc4)cc3)C(=N)N21	0.02	0.19
CCOC(=O)N/N=C\c1cccc(OC)c1	1.7	0.57

Some of the entries so far, comma-delimited.
molecule,KCNQ2 pot,KCNQ2 pot baseline
NC(=O)C1CCN(C(=O)CSc2ncccn2)CC1,0.66,0.25
CCC(C)(C)NC(=O)Cc1ccc(OC)c(OC)c1,0.02,0.82

Complete entries, quoted from the list:
Shown for `Cc1ccccc1N(CC(=O)N/N=C/c1cc(Br)c(C)o1)S(C)(=O)=O` → KCNQ2 pot = 0.83; KCNQ2 pot baseline = -0.43
Shown for `Cc1cc(NS(=O)(=O)c2ccc(NC(=O)c3ccco3)cc2)nc(C)n1` → KCNQ2 pot = 0.03; KCNQ2 pot baseline = -0.3
Shown for `NC(=O)CC(NC(=O)c1ccccc1)c1ccc(NC2CCCC2)c([N+](=O)[O-])c1` (stereo not given) → KCNQ2 pot = 0.11; KCNQ2 pot baseline = 2.6

(list continues)
SMILES	KCNQ2 pot	KCNQ2 pot baseline
CCOc1ccc(NC(=O)CCc2nnc3ccc(N4CCN(C)CC4)nn23)cc1	0.01	-0.87
Cc1nn(-c2ccccc2)c(Cl)c1/C=N/NC(=O)CCNc1n[nH]c(=O)[nH]c1=O	0.17	-0.26
Cc1cc(Nc2ccccc2C(=O)O)n(-c2ccc([N+](=O)[O-])cc2)n1	0.18	-1.2
O=C(Nc1ccc([N+](=O)[O-])cn1)C1CC1	0.42	-0.92
CC(=O)Nc1ccc2oc(-c3ccccc3Br)nc2c1	0.34	0.5
COc1ccccc1Nc1nnc(SCc2cc(=O)n3ccsc3n2)s1	0.51	-0.26
Cc1ccccc1N1CCN(CC(=O)Nc2nc(C)c(C(=O)N(C)C)s2)CC1	0.31	-0.09
COC(=O)c1cc(Br)c(=O)n(CCN(C(C)C)C(C)C)c1	1.8	0.58
Cc1ccc(NC(=O)C2CCN(S(=O)(=O)c3c(C)[nH]c(=O)[nH]c3=O)CC2)cc1	0.87	-1.8
CCOc1cc(/C=N/NC(=O)c2ccc(=O)n(C)c2)ccc1O	1.4	1.6
C#Cc1ccc([C@H]2C=C(C(=O)NC3CC3)O[C@@H](OCC)[C@@H]2CCCO)cc1	0.39	-0.16
CCOc1ccc(-n2nnnc2-c2nc3ccccc3s2)cc1	0.55	0.13
Cc1cccc(CN2C(=O)[C@H]3Cc4c([nH]c5ccccc45)C(C)(C)N3C2=O)c1	0.03	-3
C=CCN(CC=C)C(=O)CN1C(=O)NC(C)(c2ccc3cc(OC)ccc3c2)C1=O (stereo not given)	0.6	2.5
CCCS(=O)(=O)c1nc(S(=O)(=O)c2ccc(C)cc2)c(N2CCC(C(N)=O)CC2)s1	4.4	-0.26
COC(=O)c1c(NC(=O)C(=O)N2CCOCC2)sc2c1CCCC2	2.3	-1.7
COc1ccc([N+](=O)[O-])cc1N(CC(O)CN(CC(C)C)CC(C)C)S(=O)(=O)c1ccc(C)cc1 (stereo not given)	0.38	1.2
Cc1cccc(C)c1NC(=O)NCc1ccco1	2.2	-0.15
COc1ccc(/C=C(\C#N)C(=O)OCC(=O)Nc2c(C)cccc2C(C)C)cc1	1.4	-0.52
C=C(C)CN(CC)c1ccc(N2C(=O)CCCC2=O)cc1[N+](=O)[O-]	0.07	3.3
CCCCNC(=O)N1CCOCCOCCN(C(=O)NCCCC)CCOCCOCC1	0.11	-0.06
NS(=O)(=O)c1cccc(NS(=O)(=O)c2ccc3ccccc3c2)c1	1.4	3.5
CC(C)c1nc2cc(C(=O)N3CCNC(=O)C3c3cccc(F)c3)ccc2o1 (stereo not given)	0.58	0.24
CC1CN(C(=O)CN2C(=O)c3ccccc3S2(=O)=O)CC(C)O1 (stereo not given)	0.77	1.6
O=C(CSc1ncnc2c1cnn2-c1ccccc1)Nc1ccccc1	0.34	1.1
O=C(CNC(=O)c1ccco1)Nc1cc(Cl)ccc1N1CCOCC1	2.7	-0.48
COc1ccc(N/C(N)=N/c2nc(CSc3ccc(C)cc3)cc(=O)[nH]2)cc1	1.5	-0.07
Cc1ccc(C2NC(=O)c3c(sc4c3CCN(C)C4)N2)o1 (stereo not given)	0.76	-2
CSCCC(NC(=O)c1ccco1)C(=O)NCc1ccc(F)cc1 (stereo not given)	0.62	-2.5
COc1cc(OC)c(OC)cc1CN1CCN(c2ccc(F)cc2)CC1	0.03	1.3
Cc1cc(C)c2nc(-c3ccccn3)cc(C(=O)NCc3cc(C)n(C)n3)c2c1	1.8	1.8
CCn1c(Cc2ccccc2)nnc1SCC(=O)NC1CC1	0.27	0.18
COC(=O)CCC(=O)NC(=S)Nc1ccccc1F	0.92	-0.69
O=[N+]([O-])c1cc(/C=N/N2CCN(Cc3ccccc3)CC2)ccc1Cl	0.04	-0.21
COC(=O)c1ccc(-n2ccnc2)cc1	0.91	-0.39
Cc1csc(C(C#N)C(=O)c2ccncc2)n1 (stereo not given)	1.2	-0.91
CC(=O)Nc1ccc(S(=O)(=O)Nc2nccc(C3Cc4ccccc4C(=O)O3)n2)cc1 (stereo not given)	0.01	1.7
COC(=O)c1cc(NC(=O)Cc2ccccc2[N+](=O)[O-])ccc1Cl	0.43	-0.79
O=C(CSc1ncn[nH]1)N1CCN(S(=O)(=O)c2ccccc2)CC1	1.4	-0.05
CCN(CC)P(=O)(Nc1ccc([N+](=O)[O-])cc1)c1c(C)nn(CCC#N)c1NC(=O)c1ccc(Cl)cc1 (stereo not given)	0.04	0.49
CCOC(=O)C1=C(COC(=O)COc2ccc(C#N)cc2)NC(=O)NC1C (stereo not given)	1.1	-0.41
COCCNC(=O)CN(C)S(=O)(=O)c1ccc2c(c1)OCCO2	0.02	-0.14
O/N=C1/CCCCC1c1ccccn1 (stereo not given)	0.38	-0.34
O=C(CCCn1c(=S)[nH]c2ccc(Br)cc2c1=O)NCc1ccccn1	1	-3.1
Cc1cc(Cl)ccc1NC(=S)NCCN1CCOCC1	1.6	-0.75
Cc1ccc(-c2c(C(=O)N/N=C/c3ccc(OC(C)C)cc3)nnn2-c2nonc2N)cc1	1.7	-1.7
CC(=O)c1sc(NC(=O)c2c(F)cccc2F)nc1-c1ccccc1	0.42	-0.05
CCn1cc(C(=O)N2CCc3ccccc32)c(=O)c2cc(S(=O)(=O)N3CCOCC3)ccc21	0.62	-0.65
Cc1c(C(=O)N2CCCCC2CCN2CCCC2=O)oc2c(F)cccc12 (stereo not given)	2.1	0.16
CCn1c2ccc(CC(=O)O)cc2c2cc(CC(=O)O)ccc21	1.4	-0.03
CNC(=O)COC(=O)c1cccnc1SC	0.47	0.64
O=C(CN1CCCCC1)Nc1ccc(S(=O)(=O)NC2CCCCC2)cc1	0.12	-1.6
O=C(CSc1nnc(CNC(=O)c2c(F)cccc2F)o1)NCc1ccc(F)cc1	0.04	-0.02
NNC(=O)CNC(=O)CNS(=O)(=O)c1ccccc1	0.85	-2.3
CCOc1ccc(NC(=O)C2CC(=O)N(c3ccc4c(c3)OCCO4)C2)cc1OCC (stereo not given)	0.03	-0.65
